Screening data (PubChem)
RecA splice inh: Mtb RecA intein splicing inhibitors, primary screen, biochemical, fluorescence, HTS; Protein RecA (Mycobacterium tuberculosis (strain ATCC 25618 / H37Rv)), P9WHJ3; cell-free RecA intein splicing; 0.75% of 290,000 active; AID 2221, 2009; inhibition, %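 (about 9 µM by stock and volumes)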; in the data active = inhibition above about 30%;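 note: 0% = vehicle wells and 100% = reference inhibitor control wells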
Target sequence (P9WHJ3 whole entry, looked up, canonical isoform): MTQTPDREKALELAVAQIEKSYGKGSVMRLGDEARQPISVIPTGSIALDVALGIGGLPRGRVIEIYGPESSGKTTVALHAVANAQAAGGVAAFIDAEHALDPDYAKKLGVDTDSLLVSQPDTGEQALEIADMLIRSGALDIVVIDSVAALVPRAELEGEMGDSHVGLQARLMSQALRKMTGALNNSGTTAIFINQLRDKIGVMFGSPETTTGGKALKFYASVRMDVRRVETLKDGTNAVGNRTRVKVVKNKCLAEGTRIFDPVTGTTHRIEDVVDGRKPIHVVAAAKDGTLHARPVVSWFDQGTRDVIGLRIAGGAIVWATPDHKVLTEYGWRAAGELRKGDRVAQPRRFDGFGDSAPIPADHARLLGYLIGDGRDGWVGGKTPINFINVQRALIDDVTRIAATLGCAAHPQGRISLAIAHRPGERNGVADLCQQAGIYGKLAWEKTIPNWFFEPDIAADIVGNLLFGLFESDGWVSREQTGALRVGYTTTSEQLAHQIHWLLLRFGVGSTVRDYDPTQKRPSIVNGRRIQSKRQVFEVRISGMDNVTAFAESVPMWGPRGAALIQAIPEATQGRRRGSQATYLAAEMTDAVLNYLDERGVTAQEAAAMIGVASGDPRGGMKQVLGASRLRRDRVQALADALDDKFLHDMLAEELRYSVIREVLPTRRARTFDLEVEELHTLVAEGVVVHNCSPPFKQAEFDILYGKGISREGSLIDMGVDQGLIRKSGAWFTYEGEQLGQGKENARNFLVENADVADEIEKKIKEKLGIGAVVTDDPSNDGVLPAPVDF
Mtb H37Rv: M. tuberculosis H37Rv growth inhibitors, H37Rv strain (AID 1626); inhibition, % at 10 µM; hits with a dose series show IC50 in µM; 0.95% of 220,000 active; M. tuberculosis H37Rv growth inhibition; higher % means a stronger effect;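 active = confirmed in a dose series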;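 note: bacteria incubated seven days before Alamar blue readout; 0% = bacteria only wells and 100% = bacteria with antibiotic wells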
Arbovirus inh: antivirals against arbovirus infection, primary screen, cell-based, full library, 10K replicate subset. AID 1251, 2008. 0.37% of 200,000 active. arbovirus infection cell-based antiviral screen. inhibition, % at 10 µM;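 active = inhibition from about 30%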;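 note: bluetongue infection of BSR cells; cell survival read as ATP light after 72 h; 0% = infected wells without compound and 100% = uninfected wells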
Arbovirus inh repeat: also measured in Arbovirus inh; calls as there; inhibition, %; measured here: 10K subset replicate screen; many hits read low in the repeat;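 first of two repeat runs on a subset; 0% = infected and 100% = uninfected wells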
The depositor's hits bear a star; . = no result given. Some of the compounds tested. The share of hits here may be higher or lower than overall.

Start of the listing, in advance (2 entries):
SMILES	RecA splice inh	Mtb H37Rv	Arbovirus inh	others
COC(=O)Cn1cnc2c(nnn2-c2cccc(Cl)c2)c1=O	.	.	-2.0	Arbovirus inh repeat=0.3
CCCCCn1c(=O)c(C(=O)Nc2ccncc2)c(O)c2ccccc21	.	.	-12.0

The listing, from the start:
SMILES	RecA splice inh	Mtb H37Rv	Arbovirus inh	others
COC(=O)Cn1cnc2c(nnn2-c2cccc(Cl)c2)c1=O	.	.	-2.0	Arbovirus inh repeat=0.3
CCCCCn1c(=O)c(C(=O)Nc2ccncc2)c(O)c2ccccc21	.	.	-12.0
CCCCNC(=O)c1cc2c(=O)n3cccc(C)c3nc2n1C	.	.	-0.9	Arbovirus inh repeat=-3.0
O=C(/C(=C/c1ccncc1)n1ccnc1)c1ccc(Cl)cc1Cl	.	-3.1%	.
O=C1NC(=S)NC(=O)C1=Cc1cccc2cc3ccccc3cc12	.	-3.5%	.
CCCCc1cc2c(cn1)=C(OC(=O)c1cnc3ccccc3n1)C(C)(OC(=O)CC)C(=O)C=2 (stereo not drawn)	.	-7.8%	.
COc1cc(NC(=O)SC2=NCCS2)cc(OC)c1	.	40.6%	.
C#CCOCCOCCOCCNc1nc(N2CCN(C(=O)[C@H](CCC(=O)O)n3cc(C(N)CO)nn3)CC2)nc(N2CCN(C(=O)[C@H](CCC(=O)O)n3cc(C(N)CO)nn3)CC2)n1 (stereo partly drawn)	.	-18.3%	.
COc1ccccc1/C=C/C(=O)/C=C/c1ccccc1O	.	60.9%	.
c1ccc(-c2ccc(-c3nccc4ccccc34)[nH]2)cc1	.	8.7%	.
COc1cc(-c2ccc(Nc3ccccc3C(=O)O)c(OC)c2)ccc1Nc1ccccc1C(=O)O	.	-1.5%	.
O=C(Nc1ccccc1Cl)c1csc(-c2cccnc2)n1	.	2.6%	.
COC(C[C@H](O)[C@@H](C)[C@H](O)COCc1ccccc1)OC	.	-7.3%	.
CC1(C)CCC23CC[C@]4(C)C(OC2=O)(C3C1)[C@H]1O[C@H]1C1[C@@]2(C)CC[C@@H](O)C(C)(C)C2CC[C@]14C (stereo partly drawn)	.	-9.6%	.
O=C(/C=C\Nc1ccc(S(=O)(=O)Nc2ncccn2)cc1)c1ccccc1	.	-4.5%	.
Cc1ccc(-c2nc3[nH]c(=O)cc(NC(=O)C(C)C)n3n2)cc1	.	8.0%	.
CC(=O)c1ccc(OCc2cc(C(=O)N(C)C(C)c3nccs3)no2)cc1 (stereo not drawn)	0.1	.	.
CCN(CC)C1CCN(C(=O)c2cc(COc3cccc4cccnc34)on2)C1 (stereo not drawn)	12.7	.	.
Cc1cc(C)c(S(=O)(=O)N(C)CC(=O)NCC2CCCO2)c(C)c1 (stereo not drawn)	-1.4	.	.
COc1ccc(/C=C2\CCC/C(=C\c3ccc(OC)c(OC)c3OC)C2=O)c(OC)c1OC	8.8	.	.
O=C(NCCc1ccccc1)c1ccc(Cl)c(S(=O)(=O)N2CCOCC2)c1	-1.2	.	.
Cc1cc(C(=O)N2CCCC2)n[nH]1	-1.2	.	.
COc1ccc(-c2coc3cc4oc(=O)c(CC(=O)O)c(C)c4cc23)cc1	1.3	.	.
Cc1cccc(CNC(=O)C2CCC(=O)N(Cc3ccccc3F)C2)n1 (stereo not drawn)	-1.7	.	.
CC1CN(C(=O)c2ccc(NS(=O)(=O)c3ccc(C(C)(C)C)cc3)cc2)CC(C)O1 (stereo not drawn)	2.1	.	.

(list continues)
SMILES	RecA splice inh	Mtb H37Rv	Arbovirus inh	others
Cc1nc(CCNC(=O)C2CCC(=O)N(Cc3ccc(Cl)cc3)C2)sc1C (stereo not drawn)	5.7	.	.
COc1cccc(CC(NC(C)=O)C(=O)NC2CCN(C(=O)c3ccncc3)CC2)c1OC (stereo not drawn)	-0.7	.	.
O=C(NCc1ccc(F)c(F)c1)C1CCC(=O)N(CCc2ccccc2)C1 (stereo not drawn)	10.1	.	.
COc1ccc(CNc2ccccn2)c(O)c1	1.4	.	.
CN(C(=O)CCCN1CCCC1=O)C1CCCN(Cc2ccccc2F)C1 (stereo not drawn)	-1.7	.	.
COc1ccccc1NC(=O)CN1CCN(CC(=O)Nc2cc(C)ccc2OC)CC1	1.3	.	.
C/C(=N/NC(=O)C1CCCN1C(=O)c1ccc([N+](=O)[O-])cc1)c1ccc(Br)cc1 (stereo not drawn)	-0.6	.	.
COc1ccc(C(C(=O)NC2CCCCC2)N(Cc2ccco2)C(=O)c2snc(C(N)=O)c2N)cc1 (stereo not drawn)	2.3	.	.
COc1ccc(C(=O)C2CCCN(C(=O)c3cccc(N4CCCC4=O)c3)C2)cc1OC (stereo not drawn)	-1.1	.	.
COc1ccc(CCCC(=O)NCC(=O)N/N=C/c2cc(Cl)ccc2OC)cc1	2.2	.	.
CC1=NN(C(N)=S)C(=O)C1N=Nc1ccc(F)cc1 (stereo not drawn)	-0.4	.	.
O=C(COc1ccccc1Cl)N1CCc2ccccc21	1.1	.	.
O=c1[nH]cnc2c1C(c1ccccc1)c1c(nc[nH]c1=O)O2	1.4	.	.
Cc1nnnn1/C(=C\c1ccccc1)C(=O)OCC(=O)Nc1ccc(Cl)cc1F	7.4	.	.
O=C(NCCN1CCNC1=O)C1CCC(=O)N(CCc2ccc(Cl)cc2)C1 (stereo not drawn)	4.7	.	.
c1ccc(-c2nnc(N3CCCC3)nc2-c2ccccc2)cc1	0.5	.	.
COc1ccccc1C(O)(C(=O)N(NC(C)=O)c1ccccc1)c1ccccc1OC	1.0	.	.
Cc1cc(C)n(C(=O)CNC(=O)c2cccc(Cl)c2)n1	-0.9	.	.
COc1ccccc1CC(NC(C)=O)C(=O)NC1CCN(C(=O)NCc2ccccc2)CC1 (stereo not drawn)	-1.3	.	.
CCC(OC(=O)C(C)N1C(=O)C(=O)c2ccccc21)C(=O)Nc1ccccc1OC (stereo not drawn)	0.2	.	.
COc1ccccc1N1CCN(Cc2cnc3ccc(Cl)cn23)CC1	1.6	.	.
COc1ccc(OC)c(NS(=O)(=O)c2cc3c4c(c2)CCN4C(=O)CC3)c1	-2.7	.	.
COc1ccc(NC(=O)NC2(C)CCS(=O)(=O)C2)cc1 (stereo not drawn)	-0.3	.	.
Cc1ccc(/C=N/NC(=O)c2ccc(OC3CCCC3)cc2)o1	-0.7	.	.
O=C(NCCc1cccnc1)C1CCC(=O)N(Cc2ccc(Cl)cc2)C1 (stereo not drawn)	0.2	.	.

(list continues)
SMILES	RecA splice inh	Mtb H37Rv	Arbovirus inh	others
CCN(Cc1ccccc1)S(=O)(=O)c1cc2c3c(c1)CCN3C(=O)CC2	-0.3	.	.
CC(=O)N/C(=N/c1nc(C)cc(C)n1)Nc1ccc(C)cc1Cl	-0.7	.	.
CCc1ccccc1N(C(=O)c1snc(C(N)=O)c1N)C(C(=O)NCC1CCCO1)c1ccc(N(C)C)cc1 (stereo not drawn)	-0.3	.	.
OC(COC(c1ccccc1)c1ccccc1)CN1CCN(c2cccc(Cl)c2)CC1 (stereo not drawn)	1.4	.	.
CCN(CC)CCN(C(=O)Cn1nnc(-c2ccc(C)o2)n1)C(C(=O)NC1CCCC1)c1ccc(F)cc1 (stereo not drawn)	-0.3	.	.
Cc1ccc(NC(=O)Nc2ccon2)cc1	-3.8	.	.
CCCc1ccc2oc(C(=O)NCCN3CCCC(O)C3)c(C)c2c1 (stereo not drawn)	-2.5	.	.
CCC(=O)Nc1nc(C)c(-c2csc(Nc3ccc(C(=O)O)cc3)n2)s1	1.0	.	.
CCNc1nc(NCC)n2c(SCC(=O)Nc3ccc(OC(F)F)cc3)nnc2n1	2.2	.	.
CNC(=O)c1sc(NCc2ccccc2OC)nc1C	2.9	.	.
COc1cc(/C=N/NC(=O)c2c(-c3c(Cl)cccc3Cl)noc2C)ccc1OCC(N)=O	3.6	.	.
CCN1CCN(C(=O)N(CC(=O)Nc2ccc(C(N)=O)cc2)S(=O)(=O)c2ccc(C)cc2)CC1	-3.0	.	.
O=C(CNS(=O)(=O)c1ccc(Br)cc1)Nc1ccc2c(c1)OCCO2	1.7	.	.
Cc1cc(C)c2c(c1)c1nnc(SCCN3CCCCC3)nc1n2C	1.8	.	.
COc1ccc(-n2c(O)c(/C=C3\C=Nc4ccccc43)c(=O)[nH]c2=O)cc1	-0.1	.	.
COc1cc(C2C(C(=O)c3ccc(C)o3)=C(O)C(=O)N2CCN2CCOCC2)ccc1OCCC(C)C (stereo not drawn)	-3.6	.	.
Cc1ccc(OCc2cc(C(=O)N(C)CCc3nc4ccccc4[nH]3)no2)cc1C	1.2	.	.
Cc1cc(=O)[nH]c(N/N=C/c2c(F)c(F)c(F)c(F)c2F)n1	1.0	.	.
COc1cc2c(cc1OC)/C(=C/C(=O)c1ccc([N+](=O)[O-])c(C)c1)NCC2	3.9	.	.
O=C(NCCc1ccccc1F)C1CC(O)CN1C(=O)Nc1ccccc1 (stereo not drawn)	2.4	.	.
Cc1cc(OCC(=O)NNC(=O)c2cnccn2)cc(C)c1Cl	-2.2	.	.
COc1ccc(N(CC(=O)NCCC(C)C)C(=O)c2snc(C(=O)NC3CCCCC3)c2N)c(OC)c1	3.4	.	.
CCCOC1CCCN(C(=O)c2cc(COc3cncc(Cl)c3)on2)C1 (stereo not drawn)	-4.3	.	.
CCN(CC(=O)Nc1ccc(NC(C)=O)cc1)C(=O)Cc1ccc(Cl)c(Cl)c1	0.7	.	.
COc1cccc(CN2CCC(C(=O)Nc3ccc(Oc4cccnc4)cc3)CC2)c1	-0.4	.	.

Later entries.
SMILES	RecA splice inh	Mtb H37Rv	Arbovirus inh	others
CC1(c2ccc([N+](=O)[O-])cc2)NC(=O)N(CC(=O)c2ccc3c(c2)OCO3)C1=O (stereo not drawn)	-2.3	.	.
COc1ccc(OC)c(NC(=O)CSc2nnnn2C2CCCC2)c1	-0.2	.	.
CCCN1CCn2c3c(c4cc(Br)ccc42)CCCC31 (stereo not drawn)	10.6	.	.
O=c1[nH]c(NC2CCN(S(=O)(=O)c3ccccc3C(F)(F)F)CC2)nc2c1CCCC2	0.0	.	.
C/C(=N\N1CCN(c2ccccc2)CC1)c1ccc(O)cc1	-0.4	.	.
Cc1ccc(CNC(=O)c2cn(C)c3ccc(S(=O)(=O)N4CCOCC4)cc3c2=O)cc1	-0.9	.	.
CCc1cc2c(=O)c(-c3nc4ccccc4n3C)coc2c(CN2CCCCC2C)c1O (stereo not drawn)	-1.4	.	.
CN1[C@@H]2CC[C@H]1CC(OC(=O)[C@H](CO)c1ccccc1)C2 (stereo partly drawn)	2.1	.	.
Cc1cccc(N(C(=O)c2snc(C(N)=O)c2N)C(C(=O)NC2CCCC2)c2ccco2)c1 (stereo not drawn)	1.1	.	.
CCOc1ccc(Br)cc1C1=NN(C(C)=O)C(c2ccc([N+](=O)[O-])s2)O1 (stereo not drawn)	-3.2	.	.
CN(C)S(=O)(=O)c1ccc(C(=O)/C=C/c2cccnc2)cc1	-0.4	.	.
CC(=O)NCCC(=O)Nc1nc(-c2c[nH]c3ccccc23)cs1	4.9	.	.
Cc1ccc(S(=O)(=O)Nc2cccc3cccnc23)c([N+](=O)[O-])c1	1.5	.	.
Fc1ccc2c(c1)c1n[nH]c(=S)nc1n2CCc1ccccc1	4.6	.	.
COc1ccc(CC(=O)N/N=C(\C)c2cccc(NC(=O)C3CC3)c2)cc1	-1.5	.	.

Sorted by SMILES length (high to low): 18 of the compounds above.
SMILES	RecA splice inh	Mtb H37Rv	Arbovirus inh	others
COc1ccc(N(CC(=O)NCCC(C)C)C(=O)c2snc(C(=O)NC3CCCCC3)c2N)c(OC)c1	3.4	.	.
CC1(c2ccc([N+](=O)[O-])cc2)NC(=O)N(CC(=O)c2ccc3c(c2)OCO3)C1=O (stereo not drawn)	-2.3	.	.
Cc1cccc(N(C(=O)c2snc(C(N)=O)c2N)C(C(=O)NC2CCCC2)c2ccco2)c1 (stereo not drawn)	1.1	.	.
O=c1[nH]c(NC2CCN(S(=O)(=O)c3ccccc3C(F)(F)F)CC2)nc2c1CCCC2	0.0	.	.
Cc1ccc(CNC(=O)c2cn(C)c3ccc(S(=O)(=O)N4CCOCC4)cc3c2=O)cc1	-0.9	.	.
CCOc1ccc(Br)cc1C1=NN(C(C)=O)C(c2ccc([N+](=O)[O-])s2)O1 (stereo not drawn)	-3.2	.	.
CCN(CC(=O)Nc1ccc(NC(C)=O)cc1)C(=O)Cc1ccc(Cl)c(Cl)c1	0.7	.	.
CCc1cc2c(=O)c(-c3nc4ccccc4n3C)coc2c(CN2CCCCC2C)c1O (stereo not drawn)	-1.4	.	.
Cc1ccc(S(=O)(=O)Nc2cccc3cccnc23)c([N+](=O)[O-])c1	1.5	.	.
COc1cccc(CN2CCC(C(=O)Nc3ccc(Oc4cccnc4)cc3)CC2)c1	-0.4	.	.
CN1[C@@H]2CC[C@H]1CC(OC(=O)[C@H](CO)c1ccccc1)C2 (stereo partly drawn)	2.1	.	.
Cc1cc(=O)[nH]c(N/N=C/c2c(F)c(F)c(F)c(F)c2F)n1	1.0	.	.
CN(C)S(=O)(=O)c1ccc(C(=O)/C=C/c2cccnc2)cc1	-0.4	.	.
O=C(NCCc1ccccc1F)C1CC(O)CN1C(=O)Nc1ccccc1 (stereo not drawn)	2.4	.	.
Fc1ccc2c(c1)c1n[nH]c(=S)nc1n2CCc1ccccc1	4.6	.	.
Cc1cc(OCC(=O)NNC(=O)c2cnccn2)cc(C)c1Cl	-2.2	.	.
C/C(=N\N1CCN(c2ccccc2)CC1)c1ccc(O)cc1	-0.4	.	.
CCCN1CCn2c3c(c4cc(Br)ccc42)CCCC31 (stereo not drawn)	10.6	.	.
